Compound activity from PubChem.
MgrA-DNA mod – alters Staphylococcus aureus MgrA binding to DNA. AID 602314. fluorescence polarization. inhibition, %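 (about 10 µg/mL by stock and volumes)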. hit rate 0.13% among 84,000;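 active means above 50% in either of two replicates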;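 further: 0% = protein plus DNA without compound and 100% = DNA alone without protein; higher means less MgrA bound to DNA so lower polarization; one replicate is shown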
Sa helicase inh – blocks Staphylococcus aureus DNA helicase. hit rate 0.05% among 120,000. inhibition, %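 (tested at about 80 µM)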. purified S. aureus helicase, fluorescence unwinding assay; about half of the hits fall short of the stated cut;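 active means both duplicates at 50% or more, or one of them with a favoured structure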;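 further: 0% = mean of negative control wells and 100% = mean of positive control wells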
* marks the source's active call; other numbers are inactive results; . = no result given; & = joins results of further samples. These rows are one share of the data; rates above refer to the full screens.

SMILES	MgrA-DNA mod	Sa helicase inh
CN1C/C(=N\S(=O)(=O)c2ccccc2)N(C)C1=O	.	20
COc1ccc(N2CCN(C(=O)CNC(C)C3CC4CCC3C4)CC2)cc1 (configuration not stated)	.	-17
c1ccc(Cn2nnc3c(N4CCCC4)ncnc32)cc1	-2.8	11
CCS(=O)(=O)N1CCc2cc(C(=O)CSc3nnc(COc4ccc(F)cc4)o3)ccc21	.	13
Cc1ccc(C(=O)NC2(O)C(=O)c3ccccc3C2=O)cn1	-5.7	.
O=S(=O)(NC1CCCCC1)c1ccc(Cl)s1	-1.8	5
O=C(Oc1ccc(O)cc1)C12CC3CC(CC(C3)C1)C2	2.1	-3
O=C(c1cccs1)N1CCN(c2ccc(Cl)cc2)CC1	-0.7	-1
CC12CC3CC(C)(C1)CC(C(=O)NO)(C3)C2	-0.2	17
COc1ccc(C2OCC(C)(C(=O)O)CO2)cc1 (configuration not stated)	0.8	-1
CC1SC(=S)N(c2ccc(N(C)C)cc2)C1=O (configuration not stated)	2.5	10
Nc1no[n+]([O-])c1-c1ccccc1	2.4	-5&0
COc1ccc(NC(=S)NCCCC2C=NNC2=O)cc1 (configuration not stated)	1.2	.
CC(C)(C)N=C1NN=C(c2ccc(Cl)c(Cl)c2)CS1	.	-1
Cc1nnc(SCC(=O)c2ccc3[nH]c(=O)oc3c2)n1Cc1ccccc1	.	7
COc1ccc(Cn2c(C)c(CNCc3cccs3)c(C(=O)O)c2C)cc1	.	0
COc1ccc(OC)c(CNC(=O)CN2Cc3ccccc3C2=O)c1	-1.5	3
Cn1c(=O)c2c(nc(N3CCCC3)n2CCSc2nc3ccccc3s2)n(C)c1=O	.	19
CC(C)CN(CC(C)C)C(=O)CCn1c(=O)oc2ccccc21	-1.6	15
Oc1ccccc1N=Cc1ccccc1	.	8
O=C(C1CCCC1)N1CCCC1c1nc2ccccc2s1 (configuration not stated)	.	-14
Cc1ccc(NC(=O)c2ccccc2NC(=O)c2sc3ccccc3c2Cl)c(C(=O)c2ccccc2)c1	-2.1	.
NCCSC1CC(=O)N(c2ccc(Cl)cc2)C1=O (configuration not stated)	-3.0	9
O=C(CN1C(=O)c2ccccc2S1(=O)=O)NCc1ccncc1	.	20
Fc1cccc(-c2csc(-c3ccno3)n2)c1	0.3	.
O=C(c1ccc(CN2C(=O)CCn3nccc32)cc1)N1CCOCC1	0.2	-12
CCOC(=O)C1=C(C)N=c2s/c(=C\c3cc4c(cc3Cl)OCO4)c(=O)n2C1c1ccc(OC)cc1 (configuration not stated)	-9.8	.
C=CCN(CC=C)S(=O)(=O)c1ccc(C(=O)Nc2nnc(-c3cc(C)ccc3C)o2)cc1	.	2
CC(Sc1cccc(C(F)(F)F)c1)C(=O)NC(N)=O (configuration not stated)	.	-8
COc1cc2c(C(=O)N3CCC4(CC3)OCCO4)cn(CC(C)C)c(=O)c2cc1OC	0.8	1
O=C(CN1C(=O)/C(=C/c2ccccc2)Sc2ccccc21)NC1CCCC1	0.8	14
COc1ccc(S(=O)(=O)N2CCCC2C(=O)n2nc(C)cc2C)cc1 (configuration not stated)	0.6	2
O=C(NCCc1ccccn1)c1cc(C(=O)C2CCCCC2)c[nH]1	-2.0	.
Nc1nc(SCCSc2ccc(F)cc2)n[nH]1	.	-12
O=C(CN1CC(C(=O)N2CCOCC2)Oc2ccccc21)Nc1ccc2c(c1)CCC2 (configuration not stated)	.	2
CCOC(=O)c1nc2ccccc2c(C)c1C	-0.6	12
Fc1ccccc1/C=C/c1ccncc1	.	-6
C=C1SC(=Nc2cccc(OC)c2)N(C(=O)C(c2ccccc2)C2CCCC2)C1(C)C (configuration not stated)	3.5	.
Cc1cc(SCC(=O)c2ccccc2)nc(=O)[nH]1	.	11
N#C/C=C/N(C#N)c1ccccc1	-1.9	15
CN(C(=O)CSc1nc(-c2ccccc2)cs1)C1CCS(=O)(=O)C1 (configuration not stated)	.	8
O=C1OCCC1Sc1nnc(-c2ccccc2)n1-c1ccc(Cl)cc1 (configuration not stated)	.	2
CCOc1ccc(-n2c(O)c(C=NCCCN3CCOCC3)c3ccccc3c2=O)cc1	.	3
Cc1ccc(C)n1-c1ccc(C(=O)NNC2=NCCC2)s1	.	1
O=C(CCS(=O)(=O)c1ccccc1)Nc1ccc2c(c1)OCCO2	-2.6	7
CN(Cc1cccs1)S(=O)(=O)c1ccc2c(c1)OCCO2	.	-15
COc1ccc(/C(N)=C/C2=NC(C)(C)CO2)cc1	-1.1	11
O=C(Cn1c(=O)oc2ccccc21)NCCN1CCc2ccccc2C1	.	-3
Cc1nc2c3ccccc3[nH]c(=O)n2n1	.	-9
O=C1CCCC2=C1C(c1cccs1)C1C(=O)c3ccccc3C1=N2 (configuration not stated)	-2.0	14
O=C(CN1C(=O)S/C(=C\c2ccccc2)C1=O)Nc1nccs1	.	-30
Cn1ccc(-c2ccccc2)n1	-0.3	-1
COc1cc(C2C3=C(CCCC3=O)OC3=C2C(=O)CCC3)ccc1OCc1ccccc1	-2.1	.
COC(=O)c1cnn(-c2ccccc2)c1/C=N/O	-1.4	.
O=C(NO)c1csc(-c2cccnc2)n1	.	-12
CC(=O)NC(=O)/C(=C(/C)Nc1ccccc1)c1ccccc1	1.0	-21
COCCNC(=S)Nc1ccc2nc(N3CCN(C)CC3)cc(C)c2c1	.	23
CC1CN(Cc2c(O)ccc3ccccc23)CC(C)O1 (configuration not stated)	4.7	-11
CCCc1cc(=O)oc2c(CN3CCCCC3)c(O)ccc12	.	8
CCOc1ccc2c(c1)c(=O)c1cccnc1n2CC(=O)Nc1cccc(C)c1C	.	-4

Additional results follow:
SMILES	MgrA-DNA mod	Sa helicase inh
Cc1cccc(-c2cc3nc4c(c(N5CCCC5)n3n2)CCCC4)c1	0.8	-4
Cc1cc(C)c2[nH]c(O)c(N=NC(=S)NCC3CCCO3)c2c1 (configuration not stated)	.	2
CCOC(=O)CNc1nc(Cl)nc(Nc2ccccc2)n1	0.2	2
CC1(C)CC2CC(C)(CN2C(=O)Cn2nc(C(=O)O)c3ccccc3c2=O)C1 (configuration not stated)	.	-2
Cc1ccc2cc(CNCc3cccnc3)c(=O)[nH]c2c1	0.5	1
CC1CCN(CC(C)OC(=O)c2ccco2)CC1 (configuration not stated)	.	-10
O=C1CC(N2C(=O)C3CC=CCC3C2=O)C2COC1O2 (configuration not stated)	-0.2	-6
COc1ccccc1NC(=S)N/N=C/c1cccnc1	.	-12
CCCCS(=O)(=O)/C=C\C1C2C=CC(C2)C1S(=O)(=O)CCCC (configuration not stated)	-0.6	14
CC1CCCCN1C(=O)c1cc(I)ccc1NC(=O)c1cccnc1 (configuration not stated)	5.1	12
CCOC(=O)c1nc(N2CCc3cc(OC)c(OC)cc3C2C)c2ccccc2n1 (configuration not stated)	.	4
CCOc1ccc(C2Nn3c(nnc3-c3ccccc3)SC2C(=O)N2CCCCC2C)cc1 (configuration not stated)	.	-22
O=C(C1CC(c2ccc(F)cc2)=NO1)N1CCCCC1 (configuration not stated)	-1.3	9
Oc1[nH]c2ccccc2c1C=NCc1cccc(F)c1	12	24
C/C(CCc1ccccc1)=N/NS(C)(=O)=O	0.7	0
COC(=O)c1ccc2c(=O)[nH]c(COC(=O)c3ccc4c(c3)OCO4)nc2c1	.	-9
Cc1csc(N(C(=O)CSc2nc(C3CC3)n(-c3ccccc3)n2)c2ccccc2)n1	.	4
CCn1cc(C(=O)OCC(=O)Nc2ccc(OC)cc2)c(=O)c2ccc(C)nc21	.	-34
CCOC(=O)C(C)Sc1nnc(NC(=O)C2CC2)s1 (configuration not stated)	.	7
COc1cc(NC(=O)c2ccccc2)c(C(=O)O)cc1OC	0.9	.
Cn1c(=O)n(Cc2ccccc2)c(=O)c2c1nc1n2CCCN1c1cccc(Cl)c1	.	-3
CC(C)NCC(O)COc1ccc(C(C)(C)C)cc1 (configuration not stated)	.	3
COC(=O)c1cc(S(=O)(=O)NCCc2ccccc2)c[nH]1	.	-12
O=C(Oc1ccccc1-c1nc(-c2ccccc2)no1)c1ccccc1	0.6	2
Cc1nc2ccccc2c(=O)n1CCNc1cccc2ccccc12	3.1	22
O=S(=O)(c1ccccc1)N1CCN(Cc2ccccc2)CC1	0.7	-1
CCCn1c2ccccc2c2cnn(CC(=O)N(C)c3ccccc3)c(=O)c21	.	-10
Cc1ccc(O)c(-c2cc(-c3ccc(C(C)(C)C)cc3)n[nH]2)c1	4.7	13
Nc1c(C(=O)c2ccc(Br)cc2)sc2nc(-c3cccs3)ccc12	-1.0	-29
CN(C)c1nc(C(=O)OCCO)nc(N(C)C)n1	.	14
COC(=O)CCC1(C(=O)O)CCOC(C)(C)C1 (configuration not stated)	-0.8	3
CC(C#N)(Cc1ccccc1)Nc1ccc(Cl)cc1 (configuration not stated)	-0.9	.
COc1ccc(N2C(=O)C(O)=CC2(OC)c2ccccc2)cc1 (configuration not stated)	1.0	-8
COC(=O)C(N)CS (configuration not stated)	-0.7	.
C#CCn1nnc2ccccc21	.	-11
CC(=O)Nc1cccc(OCCOc2cccc(NC(C)=O)c2)c1	-1.3	.
O=S(=O)(Cc1ccc(Cl)cc1)Nc1ccc2c(c1)OCCO2	6.0	8
O=C(Nc1ccccc1)OC1CCCCc2cccnc21 (configuration not stated)	-1.2	.
NS(=O)(=O)c1ccc(N(C(=O)Cn2nnc3ccccc32)C(C(=O)NC2CCCC2)c2cccs2)cc1 (configuration not stated)	-0.8	3
NC(=O)C(Cc1ccccc1)N1C(=O)c2ccccc2C1=O (configuration not stated)	.	-12
COc1ccc(Cn2c(CCC(=O)O)nc3cccnc32)cc1	.	7
OCc1cnn(-c2ccccc2)c1	.	10
C/C(=N\OC(=O)c1cccc(C(F)(F)F)c1)c1csc(-c2ccno2)n1	.	19
CCN1CCN(C(=O)CCC(=O)c2cccs2)CC1	.	-4
O=c1c(O)c(-c2ccc(O)c(O)c2)oc2cc(O)cc(O)c12	-1.2&1.6&3.5	.
COc1cc(-c2nc3ccccc3c(=O)n2NC(=O)Cn2nc(C(F)(F)F)c(Br)c2C)cc(OC)c1OC	-2.0	.
CSc1[nH]c(=O)cc(C)c1C(=O)O	.	4
CSc1ccc(CN2CCN(Cc3ccco3)CC2)cc1	-3.0	-8
Cn1cnc(S(=O)(=O)NCC2CCN(S(=O)(=O)c3ccccc3)CC2)c1	-1.3	.
O=c1ccc2cc(O)c(O)cc2o1	-1.8&0.0	.
O=c1[nH]c2ccccc2c(O)c1-c1nc2ccccc2c(=O)[nH]1	1.4	-9
C1CCC(NC2=NCCS2)CC1	0.3	.
OCc1c[nH]c2ccccc12	.	5
COCC(C)NC(=O)c1cccc(Cl)c1 (configuration not stated)	0.5	13
Cc1cccc(Cn2nc(C(C)(C)C)cc2C(=O)NCc2cccs2)c1	.	-6
O=C(N/C=C/c1ccco1)OCc1ccccc1	4.6	.
Cc1c(O)nc2ccccn2c1=O	.	-15
CC(=O)NC12CC3CC(C1)CC(NC(C)=O)(C3)C2	-1.2	.
COc1ccc(-c2cc3c(=O)[nH]ncn3n2)cc1	.	7
CN(Cc1ccccc1)C(=O)COC(=O)C1=NNC(=O)CC1	.	21

More results follow.
SMILES	MgrA-DNA mod	Sa helicase inh
Cc1ccc(S(=O)(=O)NCCOc2nc(N(C)C)nc(N3CCOCC3)n2)cc1	0.2	2
CCOC(=O)c1cc2c(=O)n3cccc(C)c3nc2n(C)c1=N	.	18
O=C(CSc1ccccn1)Nc1cc(C(F)(F)F)cc(C(F)(F)F)c1	-2.1	.
O=C(NCC(c1cccs1)N1CCc2ccccc2C1)C1CC1 (configuration not stated)	.	10
CCC(CC)NC(=O)COc1ccc(Cl)cc1Cl	-0.8	8
CCOC(=O)c1cc(C#N)c(Sc2ccccc2)nc1C(F)(F)F	0.5	.
CCc1ccc(OC(C)C(=O)N2CC(C(=O)OC)Oc3ccccc32)cc1 (configuration not stated)	.	8

Structures shown so far containing an aryl methoxy group, in the order listed:
SMILES	MgrA-DNA mod	Sa helicase inh
COc1ccc(N2CCN(C(=O)CNC(C)C3CC4CCC3C4)CC2)cc1 (configuration not stated)	.	-17
COc1ccc(C2OCC(C)(C(=O)O)CO2)cc1 (configuration not stated)	0.8	-1
COc1ccc(NC(=S)NCCCC2C=NNC2=O)cc1 (configuration not stated)	1.2	.
COc1ccc(Cn2c(C)c(CNCc3cccs3)c(C(=O)O)c2C)cc1	.	0
COc1ccc(OC)c(CNC(=O)CN2Cc3ccccc3C2=O)c1	-1.5	3
CCOC(=O)C1=C(C)N=c2s/c(=C\c3cc4c(cc3Cl)OCO4)c(=O)n2C1c1ccc(OC)cc1 (configuration not stated)	-9.8	.
COc1cc2c(C(=O)N3CCC4(CC3)OCCO4)cn(CC(C)C)c(=O)c2cc1OC	0.8	1
COc1ccc(S(=O)(=O)N2CCCC2C(=O)n2nc(C)cc2C)cc1 (configuration not stated)	0.6	2
C=C1SC(=Nc2cccc(OC)c2)N(C(=O)C(c2ccccc2)C2CCCC2)C1(C)C (configuration not stated)	3.5	.
COc1ccc(/C(N)=C/C2=NC(C)(C)CO2)cc1	-1.1	11
COc1cc(C2C3=C(CCCC3=O)OC3=C2C(=O)CCC3)ccc1OCc1ccccc1	-2.1	.
COc1ccccc1NC(=S)N/N=C/c1cccnc1	.	-12
CCOC(=O)c1nc(N2CCc3cc(OC)c(OC)cc3C2C)c2ccccc2n1 (configuration not stated)	.	4
CCn1cc(C(=O)OCC(=O)Nc2ccc(OC)cc2)c(=O)c2ccc(C)nc21	.	-34
COc1cc(NC(=O)c2ccccc2)c(C(=O)O)cc1OC	0.9	.
COc1ccc(N2C(=O)C(O)=CC2(OC)c2ccccc2)cc1 (configuration not stated)	1.0	-8
COc1ccc(Cn2c(CCC(=O)O)nc3cccnc32)cc1	.	7
COc1cc(-c2nc3ccccc3c(=O)n2NC(=O)Cn2nc(C(F)(F)F)c(Br)c2C)cc(OC)c1OC	-2.0	.
COc1ccc(-c2cc3c(=O)[nH]ncn3n2)cc1	.	7
